miR-21 reporter – miR-21 reporter, rising signal | HeLa miR-21 FLuc reporter, luciferase, 48 h | Potency, µM (doses to about 38.3 µM), for inactives: top-dose reporter change, positive = more light | 340,000 tested, under 10 active; active = well fitted rising curve with a large enough effect; inconclusive = small, poorly fitted or top-dose-only effect; inactive = no such curve, though single readings can be large or run the other way;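 note: % of control where 0% means no effect; miR-21 action dims this reporter so a rising signal means less miR-21 action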
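Using DMEM plus 10% FBS, HeLa miR-21-FLuc cells are incubated with test compounds (final up to about 40uM) for 48 hours; firefly luciferase signal is then imaged following reagent-mediated lysis.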
Rango-impB inh – Rango-importin beta binding inhibition; Potency, µM (doses to about 92.2 µM), without a hit: top-dose inhibition of complex formation; Q14974; Rango CFP/YFP FRET sensor + importin beta, 45 min; AID 540263; actives 0.031% (n = 340,000); active = rising FRET ratio curve, often small or poorly fitted; inconclusive = mostly compound fluorescence or quenching in the first reads; inactive = flat curves in all reads;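 note: potency is the fitted concentration of half-maximal effect; 0% = DMSO wells and 100% = buffer wells lacking importin beta; nearly all actives have a fitted effect of over 15% in size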
Target sequence (Q14974 whole entry, looked up): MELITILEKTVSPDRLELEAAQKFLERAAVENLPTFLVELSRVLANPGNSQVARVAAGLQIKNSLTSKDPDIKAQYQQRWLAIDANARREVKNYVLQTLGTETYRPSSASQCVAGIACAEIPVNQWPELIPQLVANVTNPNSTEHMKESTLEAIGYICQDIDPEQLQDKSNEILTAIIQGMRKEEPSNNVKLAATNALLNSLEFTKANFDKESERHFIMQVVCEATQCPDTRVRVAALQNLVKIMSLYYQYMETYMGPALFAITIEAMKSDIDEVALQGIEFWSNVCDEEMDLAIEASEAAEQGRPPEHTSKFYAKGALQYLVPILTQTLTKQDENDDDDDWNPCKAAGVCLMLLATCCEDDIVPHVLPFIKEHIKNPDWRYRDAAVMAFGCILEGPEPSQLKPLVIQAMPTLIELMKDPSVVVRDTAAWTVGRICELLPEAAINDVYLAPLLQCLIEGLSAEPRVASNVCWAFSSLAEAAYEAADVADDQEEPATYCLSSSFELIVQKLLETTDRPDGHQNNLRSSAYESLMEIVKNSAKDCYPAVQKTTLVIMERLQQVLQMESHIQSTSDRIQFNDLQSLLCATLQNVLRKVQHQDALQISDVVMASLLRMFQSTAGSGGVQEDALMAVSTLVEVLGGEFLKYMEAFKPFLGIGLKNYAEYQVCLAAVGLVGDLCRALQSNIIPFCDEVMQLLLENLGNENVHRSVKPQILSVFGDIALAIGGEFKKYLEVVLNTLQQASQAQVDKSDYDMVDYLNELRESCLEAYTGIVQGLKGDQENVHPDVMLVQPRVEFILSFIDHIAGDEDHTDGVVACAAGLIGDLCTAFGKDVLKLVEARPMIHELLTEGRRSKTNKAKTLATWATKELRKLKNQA
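FRET biosensor (snurportin 1 IBB flanked by EYFP and cerulean), 50 nM, with compound 5 min, then 0.125 microM importin beta in PBS, 1 mM DTT, 0.02% Tween-20, 0.1% BSA. CFP/YFP ratio read after 45 min at room temperature; pre-read flags interference.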
Rango release inh – prevents RanGTP from dissociating the Rango-importin beta complex | actives 0.071% (n = 340,000) | Potency, µM (top dose mostly 46.1 µM), for the others: at the top dose activity change, negative = inhibition | O95149+P62826 | Biochemical FRET Rango-importin beta, RanGTP-induced dissociation; active means falling FRET ratio curve, often poorly fitted, with flat reads before Ran was added; inconclusive means other falling curves, or compound fluorescence or quenching; inactive means flat or rising ratio curve;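 note: potency is the fitted concentration of half-maximal effect; % of control where 0% means no effect; nearly all actives have a fitted effect of over 45% in size; -100% = wells without RanGTP and RCC1; the record marks most hits as doubtful in a second field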
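Rango FRET biosensor (snurportin-1 IBB flanked by N-terminal EYFP and C-terminal CFP10) at 0.1 uM, with 0.25 uM importin beta in PBS, 1mM DTT, 0.02% Tween-20, 0.1% BSA. 0.6 uM Ran, 2mM GTP and 0.2 uM RCC1 were then added for 45 min at room temperature. Inhibition read as loss of FRET rise.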
GLA inh pH 4.5 – blocks human alpha-galactosidase A at pH 4.5. P06280. purified enzyme, 4-MU-alpha-Gal fluorescence, pH 4.5. activity change, negative = inhibition, % at 105 µM. AID 1467. 230,000 tested, under 10 active; inconclusive = small, poorly fitted or top-dose-only inhibition, or a rising curve; inactive = flat fitted curve, though single readings scatter; no compound was filed as active;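 note: 0% = full activity with enzyme and -100% = basal without enzyme; dose as in the result columns while the protocol names 77 µM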
Numbers without * were called inactive; ? = inconclusive; / = not tested or not shown; & = joins results of further samples. Not all compounds are listed, so the mix of outcomes need not match the whole.

GLA inh pH 4.5 | miR-21 reporter | Rango-impB inh | Rango release inh | molecule
/ | -65% | -0.8% | 22% | CCc1ccc2[nH]c(C(=O)Nc3ccc(Br)c(C)n3)cc2c1
/ | ? | 4.6% | ? | CCCC[C@@H](CN[C@H](C)CNC)NCC1CCC(C(C)(C)C)CC1 (stereo partly specified)
12 | 0% | -4.3% | -3% | CC1Cc2ccccc2N1C(=O)CSc1ncccc1C(=O)O (stereo unspecified)
0 | -1% | 0.3% | -6% | CCN(CC)S(=O)(=O)c1ccc(-n2cnnn2)c(C)c1
-1 | -7% | 4.2% | 3% | O=C1CC(Nc2ccc(N3CCOCC3)cc2)C(=O)N1c1ccccc1 (stereo unspecified)
2 | -6% | -0.3% | 2% | O=C(Nc1ccccc1)NC1(C(=O)NCCCN2CCOCC2)CCCCC1
5 | 3% | 0.2% | 18% | Cc1ccc(NCc2n[nH]c(=S)n2-c2ccccc2)cc1
/ | / | -3.9% | 4% | CN(CC(=O)Nc1ccc(OC(F)(F)F)cc1)C(=O)C1CCC1
-7 | 0% | 5.0% | 1% | CCCCNC(=S)Nc1ccc(F)cc1
/ | 1% | 0.9% | -9% | Nc1ccc2nc(-c3cccc(-c4nc5ccc(N)cc5[nH]4)n3)[nH]c2c1
/ | 4% | 4.3% | -15% | NS(=O)(=O)c1ccc(NC(=O)/C=C/c2ccc(S(=O)(=O)NCc3ccco3)cc2)cc1
/ | / | -0.1% | -7% | Cc1ccc(Oc2ccc(NS(=O)(=O)c3cccc(C(=O)O)c3)cc2)cc1
/ | -9% | 3.5% | 21% | O=C(NCc1ccccc1)N1CCOc2ccccc21
/ | 5% | 0.3% | -1% | O=S(=O)(NC1CC2CCC1C2)c1ccc(Br)cc1 (stereo unspecified)
7 | -8% | 1.7% | 12% | CC(C)OCCCNC(=O)c1cccc(NC(=O)c2ccccc2)c1
-24 | 8% | 1.9% | 0% | CCOC(=O)c1c(C(F)(F)C(F)(F)C(F)(F)C(F)(F)F)n[nH]c1C
6 | -49% | 0.0% | 9% | Cc1nc2ccccn2c1C(=O)Nc1ccc2c(c1)OCCO2
5 | -1% | 1.1% | -9% | COc1ccc(C2=NN(C3=NN=C(N)Cc4ncnn43)C(O)(C(F)(F)F)C2)cc1 (stereo unspecified)
4 | 0% | 0.3% | 8% | O=C(O)c1ccccc1C(=O)N(Cc1ccccc1)Cc1ccccc1
3 | -2%&-19% | -0.9% | ? | CCOC(=O)CCn1nc(-c2ccc(C)cc2)c2ccccc2c1=O
3 | -2% | -2.3% | 1% | CC(=O)Nc1ccc(S(=O)(=O)N2CCN(S(=O)(=O)N3CCCCC3)CC2)cc1
/ | -22% | -0.7% | 10% | COc1ccc(NC(=O)CCCC(=O)c2ccccc2)c(OC)c1
/ | 22% | 0.0% | -2% | CCC(NC(=O)CCc1c(C)c2cc3c4c(oc3cc2oc1=O)CCCC4)C(=O)O (stereo unspecified)
-1 | -6% | -0.5% | -4% | CC1=C(C(=O)Nc2ccccc2)C(c2ccncc2)C(C#N)=C(SCC(=O)NC(C)C)N1 (stereo unspecified)
4 | -13% | 0.7% | -2% | O=C(O)C1C2C=CC(C3CC23)C1C(=O)NCCc1ccccc1 (stereo unspecified)
-7 | -3% | 1.0% | -9% | Cc1ccc(N2CC(C(=O)Nc3cc(C)ccc3F)CC2=O)cc1 (stereo unspecified)
-20 | -1% | -3.3% | -8% | CCOC(=O)C1CCN(C(c2cc3c(C)ccc(C)c3[nH]c2=O)c2nnnn2C2CCCCC2)CC1 (stereo unspecified)
-7 | -1% | -0.3% | -3% | O=C(O)CCCCCN1C(=O)C(=O)/C(=C(/O)c2ccccc2)C1c1ccccc1 (stereo unspecified)
0 | 3% | 3.6% | 1% | CCOc1cc(N2CCOCC2)c(OCC)cc1NC(=O)c1oc2ccccc2c1C
/ | -1% | 2.5% | 3% | CSc1ccccc1C(=O)NCCCn1ccnc1
/ | 3% | 0.2% | 2% | COc1ccc(/C=C(/NC(=O)c2ccccc2)C(=O)NCC2CCCO2)cc1 (stereo unspecified)
6 | 0% | -5.0% | 2% | CCOC(=O)c1c(NC(=O)CC2SC(N)=NC2=O)sc(C)c1C (stereo unspecified)
-16 | -4% | -2.5% | -13% | COc1ccc(-c2nnc3sc(COc4ccc(C)cc4)nn23)cc1
0 | -50% | 0.2% | -4% | CCc1cc(C(=O)Nc2ccccc2)cs1
/ | -1% | 5.3% | -13% | CCN(CC(=O)NCCCN1CCOCC1)S(=O)(=O)c1ccc(F)cc1
-2 | 1% | -1.5% | 1% | O=C(CCCN1C(=O)CCC1=O)Nc1ccccc1F
-11 | -13% | -4.8% | 10% | O=[N+]([O-])c1ccc(/C([O-])=C(/C(=S)Nc2ccccc2F)[n+]2ccccc2)cc1
-3 | -16% | ? | ? | CCCCCCn1c(=O)[nH]c2nc3cc(N)ccc3nc2c1=O
-2 | -49% | 7.3% | 7% | O=C(Nc1ccc2c(c1)OCO2)c1c(F)cccc1F
/ | / | -5.6% | -2% | O=C(COC(=O)COc1ccc(Cl)cc1Cl)NC1CCS(=O)(=O)C1 (stereo unspecified)
-6 | 7% | 0.0% | 7% | COc1ccc(NC(=S)Nc2cccc(S(=O)(=O)N3CCCCC3)c2)cc1
6 | -2% | -2.2% | -3% | Cc1cc(C)nc(/N=C2\NC(=O)CC(C(=O)O)N2c2ccc(Cl)cc2Cl)n1 (stereo unspecified)
-2 | 6% | 1.6% | -6% | N#CC1=C(N)Oc2n[nH]c(-c3cccs3)c2C1C1C=CCCC1 (stereo unspecified)
/ | 9% | ? | -6% | COc1cc(-c2noc(C)c2/C=C/c2ccc(N)cc2)cc(OC)c1OC
-2 | -14% | -0.3% | 11% | COc1ccc(-n2c3c(cc(C(=O)N4CCC(C)CC4)c2=O)C(=O)CC(C)(C)C3)cc1
/ | / | 0.7% | 4% | O=C(c1ccco1)N1N=C(c2ccco2)CC1c1ccc(Cl)cc1Cl (stereo unspecified)
3 | 0% | -3.4% | 6% | O=C(Nc1ccc(S(=O)(=O)N2CCC(C(=O)NC3CCCCC3)CC2)cc1)c1ccco1
-21 | 2% | 1.5% | 12% | N[C@@H](Cc1ccc(O)cc1)c1nnc([C@H](CC(=O)O)NC(=O)C2CCNCC2)o1
/ | 0% | -1.4% | -3% | Cc1ccsc1C(=O)N1CCCC(N(C)Cc2ccccc2)C1 (stereo unspecified)
1 | -5% | -1.7% | -4% | CCCCC/C(=N\NC(=O)Nc1ccccc1)c1ccccc1

Next structures follow:
GLA inh pH 4.5 | miR-21 reporter | Rango-impB inh | Rango release inh | molecule
/ | -1% | 0.8% | 6% | COc1cccc(-c2c(C(=O)N/N=C/C3CC=CCC3)nnn2-c2nonc2N)c1 (stereo unspecified)
-5&-2 | / | 0.1% | 12% | CC(=O)Oc1ccccc1C(=O)O
-1 | -9% | 7.6% | 2% | CCN(CC)c1ccc(-n2c(O)c(C=C3N=c4ccccc4=N3)sc2=S)cc1
/ | -1% | -0.4% | -2% | CCOC(=O)C1CCN(c2ccccc2CN2CCN(c3ccccc3OCC)CC2)CC1
7 | -23% | 0.9% | -29% | Cc1cc(NC(=O)c2ccccc2)sc1C
/ | / | -0.1% | ? | COc1ccc(C(=O)Cn2c(N3CCCCC3)nc3c2c(=O)n(C)c(=O)n3C)cc1OC
4 | -10% | 0.7% | -2% | CC(C)C1Cc2c(sc(NC(=S)NC(=O)c3ccccc3)c2C#N)CO1 (stereo unspecified)
5 | -2% | -2.7% | 4% | CC(C)(C)OC(=O)N1CCC[C@H]1c1nnc(SCc2c(F)cccc2Cl)o1
/ | / | -3.3% | -6% | CCc1ccc(/C(C)=N/NC(=O)CNC(=O)/C=C/c2ccco2)cc1
/ | / | -0.7% | 3% | CCc1ccc(OCC(=O)NNC(=O)C2CCN(c3ncnc4sc(C)c(C)c34)CC2)cc1
8 | 4% | 4.3% | 3% | CCC(Oc1cc(Cl)ccc1Cl)C(=O)NN1C(=O)C2C3CCC(C3=C(C)C)C2C1=O (stereo unspecified)
1 | 3% | -3.9% | 4% | CCCOc1ccc(S(=O)(=O)NCc2ccc(OC)cc2)cc1
-3 | -3% | ? | -23% | COC(=O)c1ccc(OCC(O)CN2CCC(C)CC2)cc1 (stereo unspecified)
1 | -5% | 1.7% | -1% | COc1ccc(CCNC(=O)C2CCN(S(=O)(=O)c3cnc[nH]3)CC2)cc1OC
? | 1% | ? | ? | CCCOc1cc(N(CC)CC)ccc1/C=C(/C#N)c1nc2ccc(C)cc2[nH]1
/ | -3% | -1.5% | 2% | C/C=C(\C)CN1CCC(Oc2cc(C(=O)NC3CC3)ccc2OC)CC1
1 | 2% | 5.8% | -8% | O=C(N/N=C/c1ccc(Cl)s1)c1ccccc1[N+](=O)[O-]
/ | / | -0.6% | -15% | COc1cc(C(=O)OCC(=O)NC2CC2)cc(OC)c1OC
0 | -9% | -2.0% | -2% | O=C(c1ccco1)N1CCN(C(=O)c2ccccc2Oc2ccccc2)CC1
/ | / | 2.1% | -2% | Cc1cc2c(cc1C)NC(=O)CC(c1ccccc1)=N2
-10 | -12% | 0.0% | -20% | C/C(=N\NC(=O)c1c(Cl)c(C)nn1C)c1cccc(NC(=O)COc2ccc(Cl)cc2)c1
/ | -12% | 1.3% | -9% | O=C(NC(=O)c1csnn1)Nc1ccccc1Cl
/ | / | -1.1% | -18% | Cn1ccnc1SCC(=O)Nc1cccc(C#N)c1
5 | -4% | ? | 8% | COc1ccc2c(C)nc(Nc3nc(C)cc(C)n3)nc2c1
7 | -5% | 1.7% | 11% | CSc1cc(/C=N/O)c(SC)s1
-1 | -23% | -0.2% | 22% | Brc1ccc(CNc2cc3c(cc2Br)OCCO3)cc1
2 | -5% | -1.4% | -10% | Cc1cccc(C)c1NC(=O)CN(C)C(=O)C(c1ccccc1)c1ccccc1
10 | 5% | 1.9% | 12% | Cn1c(C(=O)O)c(CC(=O)Nc2ccccc2F)c2ccccc21
3 | -44% | 0.2% | 1% | CCOC(=O)/C=C(/C)N1N=C(c2ccc(OC)cc2)CC1c1cccc([N+](=O)[O-])c1 (stereo unspecified)
5 | -2% | 2.2% | -9% | CCc1nccn1S(=O)(=O)c1ccc(C)c(C)c1

Five of the compounds above, bar-delimited:
compound | GLA inh pH 4.5 | miR-21 reporter | Rango-impB inh | Rango release inh
CSc1ccccc1C(=O)NCCCn1ccnc1 | / | -1% | 2.5% | 3%
COc1ccc(/C=C(/NC(=O)c2ccccc2)C(=O)NCC2CCCO2)cc1 (stereo unspecified) | / | 3% | 0.2% | 2%
CCOC(=O)c1c(NC(=O)CC2SC(N)=NC2=O)sc(C)c1C (stereo unspecified) | 6 | 0% | -5.0% | 2%
COc1ccc(-c2nnc3sc(COc4ccc(C)cc4)nn23)cc1 | -16 | -4% | -2.5% | -13%
CCc1cc(C(=O)Nc2ccccc2)cs1 | 0 | -50% | 0.2% | -4%

More structures:
GLA inh pH 4.5 | miR-21 reporter | Rango-impB inh | Rango release inh | molecule
1 | -1% | -1.1% | 2% | CC(C(=O)Nc1nc2ccccc2s1)n1cc([N+](=O)[O-])cn1 (stereo unspecified)
5 | 1% | -1.9% | -16% | COc1ccc([N+](=O)[O-])cc1NC(=O)c1cc(C)c(C)o1
10 | -3% | / | / | CCOC(=O)c1ccccc1NC(=O)CC1Nc2ccccc2NC1=O (stereo unspecified)
3 | -5% | -5.3% | -8% | COc1ccc(CCNCCC(=O)Nc2c(C)cc(C)cc2C)cc1OC
-3 | -10% | 0.4% | 2% | COc1ccc(CN(C)CC(=O)NC(C)c2ccccc2)cc1OC (stereo unspecified)
/ | / | 4.7% | -10% | CS(=O)(=O)N1CCC2(CC1)OCCN2S(=O)(=O)c1ccccc1
4 | -1% | 1.3% | 1% | CCOC(=O)c1cc(OC(=O)c2cccs2)n(-c2ccccc2)n1
/ | 1% | ? | ? | COc1ccc(-c2cc(Cl)cc3c(=O)c4ccccc4n(C)c23)cc1F
8 | -9% | 1.4% | 2% | COC(=O)c1ccccc1NC(=O)C(=O)NCc1ccncc1
-4 | -1% | 0.9% | 7% | CS(=O)(=O)N(CCc1ccccc1)CC(=O)NCc1cccnc1

Source: PubChem (National Center for Advancing Translational Sciences (NCATS))
